# MT1-MMP reporter: MT1-MMP gene expression reporter suppression – cell-based, luciferase reporter, luminescence (AID 618); 87,000 tested, 0.62% active; calls from a first round at 10 µM; hits with a dose series show EC50 in µM; MT1-MMP promoter luciferase reporter cells, luminescence;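 active = over half of the reporter light lost at 10 µM or EC50 under 50 µM; inactive = the rest and hits that failed the dose series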;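 note: actives suppress MT1-MMP promoter-driven transcription so potencies describe inhibitors; HT1080 fibrosarcoma cells; overnight exposure; toxic or luciferase-blocking compounds were not removed from the actives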
# WNV protease inh: blocks West Nile virus NS2B-NS3 protease activity | WNV NS2B-NS3 protease, fluorogenic substrate Ex360/Em465; stronger effect = lower value | 65,000 tested, 0.18% active | z-score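 (tested at a level between 10 and 100 µM)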;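 active = z-score at -3 or under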;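 note: score is relative to mean and spread of the compound wells of a plate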
# Target sequence (P06935 1371-1501 limits assumed): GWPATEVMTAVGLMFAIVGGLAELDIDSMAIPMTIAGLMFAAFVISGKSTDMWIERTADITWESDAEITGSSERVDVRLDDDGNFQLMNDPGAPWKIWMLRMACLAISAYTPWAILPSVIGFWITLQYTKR
# Target sequence (P06935 1502-1679 limits assumed): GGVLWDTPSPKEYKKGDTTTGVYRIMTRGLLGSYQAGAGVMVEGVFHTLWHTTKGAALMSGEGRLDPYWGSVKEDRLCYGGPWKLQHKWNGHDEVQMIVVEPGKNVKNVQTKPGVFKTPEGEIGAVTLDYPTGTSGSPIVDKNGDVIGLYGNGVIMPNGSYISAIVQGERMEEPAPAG
# Hsc70: Hsc70 inhibitors, probe displacement, primary screen, biochemical, fluorescence polarization (AID 568). Hsc70 fluorescence polarization, probe displacement; higher % means a stronger effect; strong numbers were not always called active. one-dose displacement, % at 20 µM; IC50 in µM for titrated hits. 83,000 tested, under 10 active;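 active = displacement above 50% without optical interference and an IC50 on retest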;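 note: ATPase domain with a fluorescein-tagged ATP probe; 0% = vehicle and 100% = excess ADP; read after one hour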
# * marks the source's active call; other numbers are inactive results; i = inactive; / = not tested or not shown. Rows were taken by chance (roughly 0.87% active in at least one column).
SMILES,MT1-MMP reporter,WNV protease inh,Hsc70
Cc1ccc(S(=O)(=O)NCCC(=O)NC2CCCC2)cc1,i,1.04,-10.5%
Cc1c(C#N)c(SCC(N)=O)nc2c1CCCC2,i,-0.62,-5.0%
CCOC(=O)C(NC(C)=O)(OCc1ccc(F)cc1)C(F)(F)F (centres undefined),i,1.27,0.8%
CC(CC(=O)O)CC(=O)Nc1ccc(S(N)(=O)=O)cc1 (centres undefined),i,/,0.7%
CCN1CCN(c2nc(C)nc3c2sc(=S)n3C)CC1,i,0.55,3.1%
CCN1CCN(C(=O)CSCc2nc(-c3ccc(OC)c(OC)c3)oc2C)CC1,i,0.07,2.8%
CCOc1ccc(N(CC(=O)NCc2ccc(F)cc2)S(=O)(=O)c2c(C)noc2C)cc1,i,0.65,3.7%
COc1cc(-c2nc(S(=O)(=O)c3ccccc3)c(N3CCOCC3)o2)cc(OC)c1OC,i,-1.03,4.5%
O=C(O)CCC(=O)N1N=C(c2cccs2)CC1c1cn(-c2ccccc2)nc1-c1ccccc1 (centres undefined),i,/,-4.2%
Cc1nn(CC(=O)NCc2cccnc2)c(=O)c2ccccc12,i,-0.9,3.7%
CC1(C)N=C(c2ccc(Cl)cc2)C(=O)N1,i,0.39,-0.9%
COc1cccc(/C(O)=C2/C(=O)C(=O)N(CCN3CCOCC3)C2c2cccs2)c1 (centres undefined),i,0.95,-1.1%
COC(=O)c1ccccc1NC(=O)c1cccs1,i,-0.26,5.9%
CC(C)n1c(NCc2c[nH]c3ccccc23)nc2ccccc21,i,-0.86,-2.5%
COc1cc(S(=O)(=O)N2CCN(c3ccccc3F)CC2)ccc1Cl,i,-1.32,-3.0%
Cc1cc(NC(=O)Cc2c(F)cccc2Cl)no1,i,1.42,5.9%
Nc1nnc(SCC(=O)NC2CCCCC2)s1,i,/,-3.2%
CC1S/C(=C(\C#N)C(=O)NCc2ccco2)N(c2ccc(F)cc2)C1=O (centres undefined),i,-0.39,2.1%
COc1ccccc1CNc1cc(C)ccc1C,i,/,3.3%
O=C(CN1CCN(c2ccccn2)CC1)Nc1ccc(Oc2ccccc2)cc1,i,1.09,3.8%
O=C(CSc1nc(-c2ccco2)cc(C(F)(F)F)n1)NC1CCCCCCC1,i,/,-4.2%
O=C(O)CSc1nnc(C2COc3ccccc3O2)n1-c1ccccc1 (centres undefined),i,0.2,-4.7%
NC(=O)C(c1ccccc1)C1CCCCC1 (centres undefined),i,/,-1.1%
CCn1c(=O)cc(OCC(=O)O)c2ccccc21,i,-0.9,4.7%
COc1ccc(OC)c(-c2cc(C(=O)Nc3c(C)n(C)n(-c4ccccc4)c3=O)no2)c1,i,0.11,3.6%
Cc1nn2c(nc1=O)SCC(c1ccccc1)=N2,i,-0.17,-4.3%
CC1=C(/C=C/C(=O)O)C(C)(C)CCC1,i,/,-7.9%
Cn1c(Cn2c(=O)sc3ccccc32)nnc1SCC(=O)NCc1ccc2c(c1)OCO2,i,-1,0.9%
O=C(c1cnc(N2CCN(c3ncccn3)CC2)c2ccccc12)N1CCN(c2ccccn2)CC1,i,-0.34,-3.8%
c1ccc(C2COC(c3cccs3)=N2)cc1 (centres undefined),i,-0.72,-5.1%
COc1cccc(C2=CC(c3ccccc3)n3ncnc3N2)c1 (centres undefined),i,-0.65,10.9%
COc1ccc(C(=O)N2CCCN(C)CC2)cc1S(=O)(=O)N1CCCc2ccccc21,i,-0.19,-11.3%
Cc1sc2nc(SCC(=O)C(C)(C)C)n(Cc3ccco3)c(=O)c2c1C,i,/,-2.0%
O=S(=O)(c1ccc(N2CC=C(c3ccccc3)CC2)nc1)N1CCCC1,i,1.47,-2.9%
O=C(O)c1c(F)c(F)c(F)c(F)c1-c1ccc(Cl)cc1,i,2.3,5.5%
C/C=C/C(=O)Nc1nnc(C(C)C)s1,i,/,3.7%

# As entered above:
# Value for O=C(c1cnc(N2CCN(c3ncccn3)CC2)c2ccccc12)N1CCN(c2ccccn2)CC1 in WNV protease inh: -0.34
# Value for O=S(=O)(c1ccc(N2CC=C(c3ccccc3)CC2)nc1)N1CCCC1 in Hsc70: -2.9%

# (further entries)
SMILES,MT1-MMP reporter,WNV protease inh,Hsc70
O=C(OCC(=O)N1CCCc2ccccc21)C1CCN(S(=O)(=O)c2cccs2)CC1,i,0.59,1.8%
CCOc1ccc(OCC)c(NC(=O)C2CCN(S(=O)(=O)c3cccnc3)CC2)c1,i,/,0.6%
Cn1cccc1Cc1nnc(SCC(=O)N2CCOCC2)n1CCc1ccccc1,i,0.85,2.0%
COC(=O)c1ccc(Nc2cc(C)nc3ncnn23)cc1,i,0.03,1.9%
CCOc1ccc(OCC)c(S(=O)(=O)N2CCCCC2C)c1 (centres undefined),i,-1.39,-2.6%
Cc1ccccc1-c1nnc(-c2ccccc2C)o1,i,/,0.1%
Cc1ccc2c(c1)[nH]c1c(N3CCN(Cc4ccc5c(c4)OCO5)CC3)ncnc12,i,1.18,-2.1%
CCCCNC(=O)NC1(C(F)(F)F)Oc2ccccc2O1,i,/,5.5%
COc1cc(NC(=O)C2CCCCC2)c(OC)cc1NC(=O)c1ccco1,i,-0.48,-5.8%
Cc1cccc(Cn2c(CN3CCN(Cc4ccccc4)CC3)nc3c2c(=O)[nH]c(=O)n3C)c1,i,-0.65,-1.3%
Cc1cccc2cc(COC(=O)C3CCCCC3)c(=O)[nH]c12,i,-1.7,-1.1%
Cc1ccc(C(O)P(=O)(OC2CCCCC2)OC2CCCCC2)cc1 (centres undefined),i,/,-1.2%
COc1cccc(C2(O)CCN(C(=O)c3cccs3)CC2)c1,i,-1.32,0.8%
c1ccc(-c2nnc(OCCN3CCOCC3)c3ccccc23)cc1,i,-0.28,-1.5%
CCN(CC)S(=O)(=O)c1ccc(-c2nnc(SCC(=O)Nc3ccc(OC)c(OC)c3)o2)cc1,i,/,0.3%
COC(=O)c1ccc(C(=O)OC)c(NC(=O)COC(=O)C23CC4CC(CC(O)(C4)C2)C3)c1,i,-0.63,1.6%
COc1cccc(N2C(=O)CC(c3c[nH]c4ccccc34)C2=O)c1 (centres undefined),i,-2.27,-2.3%
Cc1cc(C(C)(C)C)cc(S(=O)(=O)NCCO)c1C,i,-0.32,18.6%
CCN(CC)S(=O)(=O)c1ccc(/C(O)=C(\C#N)c2nc3ccccc3n2C)cc1,i,2.46,0.4%
CC1(C)N=C(N)N=C(N)N1c1ccc(F)cc1F,i,-1.12,5.6%
COc1ccc(C2C(C(C)=O)=C(O)C(=O)N2c2cccnc2)cc1OC (centres undefined),i,/,-13.0%
O=C(Nc1cccn(Cc2ccc(F)cc2)c1=O)NC1CCCCC1,i,/,5.1%
CCCn1nnc(NC(=O)c2ccc(F)cc2)n1,i,/,1.7%
CC1CN(S(=O)(=O)c2cccc(-c3cn4ccccc4n3)c2)CC(C)O1 (centres undefined),i,0.63,-4.3%
COc1ccc(C2CC(=O)C(C=NCCCN3CCOCC3)=C(O)C2)cc1 (centres undefined),i,-0.89,4.5%
Cc1ccc(O)c(C2=NNC(O)(C(F)(F)F)C2)c1 (centres undefined),i,/,-2.3%
CC/C(=C1/C(=O)CC(C)(C)C(C(=O)OC)C1=O)N1CCCC1 (centres undefined),i,0.33,4.0%
Cc1ccc(C(=O)Nc2ccc3c(c2)OCO3)cc1S(=O)(=O)N1CCCCC1,i,-0.78,3.9%
CCOC(=O)NC1(NC2CCCCC2)Oc2ccccc2O1,i,-0.63,-0.9%
O=C(NCCc1ccccc1)C(NS(=O)(=O)c1cccc2nsnc12)c1ccccc1 (centres undefined),i,/,3.4%
COC(=O)CCC(=O)Nc1ccc(Cl)c(Cl)c1,i,-0.26,0.9%
COc1ccc(N=C(C)C2=C(O)COC2=O)cc1,i,0.00421,-8.5%
COc1ccc(CNC(=O)C2CCCN2C(=O)NC2CCCCC2)cc1 (centres undefined),i,0.83,8.2%
Cc1cccc2cc(CN(CC3CCCO3)C(=O)c3ccco3)c(=O)[nH]c12 (centres undefined),i,-0.23,3.7%
COC(=O)COc1ccc(S(=O)(=O)NCCC2=CCCCC2)cc1C,i,-0.49,8.1%
CCc1cc(=O)oc2cc(C)cc(OC(=O)c3ccco3)c12,i,-0.46,2.7%
Cc1ccc(Cl)cc1NC(=O)CC(O)(C(F)(F)F)C(F)(F)F,i,-0.61,-0.1%
C=CCn1c(-c2ccc(OC)cc2)csc1=Nc1c(C)n(C)n(-c2ccccc2)c1=O,i,/,2.6%
Cn1c(C(=O)O)c(CC(=O)Nc2ccc3c(c2)OCCO3)c2ccccc21,i,1.37,-4.3%
CCOCCCNC(=O)c1cn(CC(C)C)c(=O)c2cc(OC)c(OC)cc12,i,0.91,-2.0%
Cc1nc2ccc(NC(=O)N3CCOCC3)cc2s1,i,-0.16,-3.0%
CC(C)(Oc1ccc(CCNC(=O)c2ccc(Cl)cc2)cc1)C(=O)O,i,0.18,1.0%
O=[N+]([O-])c1ccc(O)c(NC(=S)Nc2ccccc2)c1,i,/,-1.1%
O=c1[nH]nc2n1CCCCC2,i,0.45,-2.0%
COC(=O)C(C)N(C#N)c1nc(C)nc(C)n1 (centres undefined),i,-0.67,-3.4%
CCOC(=O)CSCc1nc(-c2ccc(Cl)cc2)oc1C,i,0.02,1.0%
COc1cc(-c2nnc(SCc3ccccc3Cl)o2)cc(OC)c1OC,i,-0.22,3.5%
COc1ccc(OC)c2[nH]c(=O)c(CCNC(=O)CC(C)C)cc12,i,-0.47,-8.2%
Cc1nc(C)n(CC(O)COc2ccc3c(c2)CCC3)n1 (centres undefined),i,-0.08,2.6%
Cc1cc(NC(NC(=O)c2ccco2)(C(F)(F)F)C(F)(F)F)no1,i,0.02,0.8%
COC(=O)c1cccc(S(=O)(=O)N2CCC(NC(=O)Nc3cccc(F)c3)CC2)c1,i,-0.48,-4.3%
CCOC(=O)Cc1csc(NC(=O)Cc2cccs2)n1,i,1.43,-3.3%
Cc1noc(NS(=O)(=O)c2ccc(N/C=C\C(=O)c3ccc4c(c3)OCO4)cc2)c1C,i,/,6.9%
CCOc1ccc(-c2noc(CCC(N)=O)n2)cc1OCC,i,-0.18,-4.0%
Cc1ccc(S(=O)(=O)NCC(=O)NC2CCCC2)cc1,i,-0.26,3.2%
CCCC(=O)Nc1cc(-c2nnc(OC)c3ccccc23)ccc1N1CCOCC1,i,2.19,-8.5%
CCCOc1nc2c(c(=O)n(C)c(=O)n2C)n1Cc1cccc2ccccc12,i,-0.89,1.3%
CCOC(=O)CN(C)Cc1c[nH]c2ccccc12,i,0.1,-4.7%
COc1cc(OC)c(C2CC(=O)N3CN(C)CSC3=C2C#N)cc1OC (centres undefined),i,-1.09,-2.0%
O=C(Nc1ccc(S(=O)(=O)N2CCCCCC2)cc1)c1ccco1,i,0.23,-2.9%

# Filtered by structure, the compounds so far with a tert-butyl group
SMILES,MT1-MMP reporter,WNV protease inh,Hsc70
Cc1sc2nc(SCC(=O)C(C)(C)C)n(Cc3ccco3)c(=O)c2c1C,i,/,-2.0%
Cc1cc(C(C)(C)C)cc(S(=O)(=O)NCCO)c1C,i,-0.32,18.6%

# Profiles from above. Screens in order: MT1-MMP reporter, WNV protease inh, Hsc70
# Profile of O=C(O)CSc1nnc(C2COc3ccccc3O2)n1-c1ccccc1 (centres undefined) : i, 0.2, -4.7%
# Profile of COc1cccc(/C(O)=C2/C(=O)C(=O)N(CCN3CCOCC3)C2c2cccs2)c1 (centres undefined) : i, 0.95, -1.1%
# Profile of COC(=O)CCC(=O)Nc1ccc(Cl)c(Cl)c1 : i, -0.26, 0.9%
# Profile of O=c1[nH]nc2n1CCCCC2 : i, 0.45, -2.0%

# Going on with the list:
SMILES,MT1-MMP reporter,WNV protease inh,Hsc70
O=C(NC1CCCc2ccccc21)C1CCN(c2c3c(nc4ncnn24)CCC3)CC1 (centres undefined),i,-1.07,-0.2%
O=C(CSc1nnc(-c2ccc(Cl)cc2)o1)N1CCN(c2ccccc2)CC1,i,-1.48,-2.1%
O=C1NC(c2ccccc2)C(C(=O)c2cccs2)C(O)(C(F)(F)F)N1 (centres undefined),i,0.98,-4.1%
COc1ccc(CNC(=O)C2CCCN(c3nc4ccccc4o3)C2)c(OC)c1 (centres undefined),i,0.02,4.6%
CN1CCN(Cc2nc3c(c(=O)n(C)c(=O)n3C)n2CCc2ccccc2)CC1,i,-0.34,-0.3%
COc1cccc(C(=O)N2CCN(Cc3cccc(F)c3)CC2)c1,i,-0.53,4.2%
O=C(Nc1ccc(N2CCOCC2)cc1)c1ccc(Cl)nc1,i,/,-0.7%
CCOC(=O)CC(=O)Nc1nnc(CC(C)C)s1,i,-0.55,1.9%
CCN1CCN(Cc2ccc(NC(=O)Nc3ccccc3OC)cc2)CC1,i,0.92,-4.8%
O=C(CN(C1CCCCC1)S(=O)(=O)c1ccccc1)NCc1ccco1,i,/,-1.6%
O=C(NC1CCCCC1)c1ccc(COCC(F)(F)F)o1,i,/,2.7%
CCN(CC)C(=O)Cn1c(=O)n(-c2ccccc2)c(=O)n1CC(=O)N(CC)CC,i,0.49,0.4%

# Compound activity: PubChem, several laboratories
